MgrA DNA FP = modulators of Staphylococcus aureus MgrA DNA binding; fluorescence polarization; inhibition, %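 (about 10 µg/mL by stock and volumes)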; 0.13% of 84,000 active; AID 602314;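 active = above 50% in either of two replicates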;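 also: 0% = protein plus DNA without compound and 100% = DNA alone without protein; higher means less MgrA bound to DNA so lower polarization; one replicate is shown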
S aureus helic = S. aureus DNA helicase inhibition; 0.05% of 120,000 active; inhibition, %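 (tested at about 80 µM)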; purified S. aureus helicase, fluorescence unwinding assay; about half of the hits fall short of the stated cut;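 active = both duplicates at 50% or more, or one of them with a favoured structure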;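 also: 0% = mean of negative control wells and 100% = mean of positive control wells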
* marks the source's active call; other numbers are inactive results; . = not tested or not shown. This is a subset (hit frequency here may not be typical).

#	MgrA DNA FP	S aureus helic	molecule
1	.	-14.0	CC(C)C(C)(C#N)NC(=O)CSc1nc(-c2ccccc2)c(-c2ccccc2)o1 (stereo unspecified)
2	0.0	.	COC(=O)C(C#N)c1ccccc1[N+](=O)[O-] (stereo unspecified)
3	.	6.0	COc1ccccc1-c1n[nH]n2c1nc(=O)c1ccccc12
4	.	-31.0	CC(/C=C1\SC(=S)N(CC(=O)Nc2ccccn2)C1=O)=C\c1ccccc1
5	.	-14.0	O=C1CSC(c2cccnc2)N1CCc1ccccn1 (stereo unspecified)
6	-1.2	4.0	Cc1oc(-c2cccc(Cl)c2)nc1CS(=O)(=O)CC(=O)NCc1ccccc1
7	-6.0	.	Cc1cccc(C(=O)Nc2cccc3ccccc23)c1
8	.	-21.0	CC(=O)NCCn1c(C)cc2ccccc21
9	0.2	-15.0	CCC(=O)c1cc(C)ccc1O
10	.	9.0	NNC(=O)CN1CCCc2ccccc21
11	.	3.0	CC(C1CC1)N(Cc1ccccc1)S(=O)(=O)c1cn(C)c(=O)n(C)c1=O (stereo unspecified)
12	.	-9.0	CCOC(=O)c1cc(-c2ccc(C)cc2)n(CCC(=O)Nc2nccs2)c1C
13	.	28.0	COC(=O)C1=C(C)NC2=C(C(=O)CC(C)(C)C2)C1c1ccccc1 (stereo unspecified)
14	1.5	-6.0	O=C(CCS(=O)(=O)c1cccs1)NC1CCCc2ccccc21 (stereo unspecified)
15	.	10.0	CCC(=O)N1CCc2cc(Br)cc(S(=O)(=O)CC(=O)OC)c21
16	-0.7	9.0	O=c1cc(-c2ccccc2)sc(=O)[nH]1
17	.	-14.0	CC1(C)CC(=O)C2=C(C1)Nc1ncnn1C2c1ccncc1 (stereo unspecified)
18	0.8	8.0	Cc1c(N=Cc2c(O)n(C)c(=O)c3ccccc23)c(=O)n(-c2ccccc2)n1C
19	.	22.0	OCc1nc(CO)n(Cc2ccccc2)n1
20	.	28.0	CCCCN(C)S(=O)(=O)c1csc(C(N)=O)c1
21	-0.6	.	O=C(O)C1=C(C(=O)Nc2ccccc2)CCCC1
22	.	14.0	COCCn1c(N)c(C(=O)N2CCCC2)sc1=S
23	-0.3	8.0	CN(Cc1ccccc1)c1nc2c(c(=O)n(C)c(=O)n2C)n1CCSc1nc2ccccc2o1
24	.	8.0	CCCn1c(=O)c(=O)[nH]c2c(=O)oc3ccccc3c21
25	.	26.0	COc1ccccc1C(=O)N=C1SC2CS(=O)(=O)CC2N1c1ccccc1 (stereo unspecified)
26	.	2.0	Cn1c(=O)n(C)c2cc(C3C(C#N)=C(N)Oc4c3ccc3ccccc43)ccc21 (stereo unspecified)
27	.	-27.0	Cc1ccc(CCNc2ccccc2)c[n+]1[O-]
28	-1.1	-12.0	NC1=NC(c2ccccc2)N2C(=N1)Sc1ccccc12 (stereo unspecified)
29	3.5	6.0	O=C(O)CSc1nnc2c(n1)OC1(CCCC1)Nc1ccccc1-2
30	-2.7	.	CCOc1ccccc1NC(=O)CN1C(=O)/C(=C/c2cccc(Br)c2)SC1=S
31	.	7.0	CC1CCCC(C)N1C(=O)COC(=O)/C=C/c1ccccc1Cl (stereo unspecified)
32	0.2	-4.0	Cc1cc(C)cc(CC(CC(=O)O)C(=O)NCc2ccccc2)c1 (stereo unspecified)
33	-1.1	.	c1csc(-c2ccnc3nc(-n4cccc4)nn23)c1
34	0.1	-9.0	CCc1cc(C(=O)Cc2nc3ccccc3n2C)c(O)cc1O
35	.	4.0	CCOC(=O)C1CCN(c2cc(C(=O)Nc3ccc(OCC)cc3)ccn2)CC1
36	-0.5	5.0	O=C1ON=C(c2cccs2)/C1=C/C=C/c1ccccc1
37	.	5.0	COC(=O)CSc1cccc2cccnc12
38	.	10.0	CC1CCN(C(=S)SCC(=O)O)CC1
39	-1.6	.	Cc1ccc(-c2cncnc2NC(=O)c2ccccc2)cc1
40	.	-5.0	Cc1cc(=O)n(C)c(=O)n1CCCCO
41	-0.5	15.0	O=C(O)c1ccccc1OCCN1CCCC1=O
42	-1.5	3.0	CCN(c1ccccc1)S(=O)(=O)c1ccc(C)cc1
43	1.6	-7.0	O=C(NC1CCCC1)C(c1ccccc1)N(Cc1cccs1)C(=O)c1csnn1 (stereo unspecified)
44	0.1	9.0	CCC(=O)NC(Nc1sc2c(c1C(N)=O)CCCC2)(C(F)(F)F)C(F)(F)F
45	.	-1.0	CCOC(=O)c1c(CN2CCN(CC#N)CC2)n(-c2ccccc2)c2ccc(O)cc12
46	-0.4	2.0	Cc1cccc(Nc2nc(N)nc(C(F)(F)F)n2)c1
47	0.7	6.0	N#CC(C#N)=C(N)/C(C#N)=C/c1cccs1
48	.	-8.0	CC(OC(=O)c1ccc(S(=O)(=O)NCc2ccco2)cc1)C(=O)Nc1ncc(Cl)cc1Cl (stereo unspecified)
49	.	-16.0	COC(=O)c1cc(OC)c(OC)cc1NC(=O)c1nc(-c2ccccc2)oc1C
50	0.7	2.0	CCc1ccc(NS(=O)(=O)c2ccc(OC)cc2)cc1
51	.	-2.0	N#CCSc1nc2ccccc2c(=O)n1CCCC(=O)NCC1CCCO1 (stereo unspecified)
52	.	11.0	CN(C)S(=O)(=O)c1ccc(-c2nc3ccccc3s2)cc1
53	0.1	12.0	CCOc1ccc(/C(=N/O)C(C)NO)cc1 (stereo unspecified)
54	.	0.0	O=c1cc(O)sc2ccccc12
55	.	-2.0	C/C(=N\NC(=O)CN1CCCC1=O)c1ccc(NC2=NCCCS2)cc1
56	.	7.0	CN(c1ncnc2onc(-c3ccc(F)cc3)c12)C1CCCCC1

(next part)
#	MgrA DNA FP	S aureus helic	molecule
57	-0.7	5.0	CCOC(=O)c1c(C)n(CC)c2cc(Br)c(OC)cc12
58	-0.7	19.0	COc1ccc(C2C(C(=O)/C=C/c3ccccc3)=C(O)C(=O)N2CCO)cc1 (stereo unspecified)
59	4.0	-5.0	COc1ccc(OC)c(N2C(=O)C=CC2=O)c1
60	-1.4	6.0	Cc1cccc(-n2ccnc2SCC(=O)N2CCc3ccccc32)c1
61	-1.4	18.0	CCC(=O)Nc1nc(-c2ccc3c(c2)CC(C)N3S(C)(=O)=O)cs1 (stereo unspecified)
62	.	-12.0	Cc1ccc(C(=O)Sc2n[nH]c(-c3cccs3)n2)cc1
63	.	16.0	CCOC(=O)c1sc(NC(=O)c2cccc(OC)c2)nc1-c1ccccc1
64	.	13.0	CC(C)CN(CC(C)C)c1nnc(NC(=O)NCc2ccco2)s1
65	-2.5	-4.0	CCN1CCCC1CNC(=O)C(NC(=O)c1ccc(C23CC4CC(CC(C4)C2)C3)cc1)C(C)C (stereo unspecified)
66	0.6	4.0	CCN1C(=O)C2C(C1=O)N1C(c3ccccc3)C3C(=O)N(CC)C(=O)C3N1C2c1ccccc1 (stereo unspecified)
67	2.1	22.0	O=C(NCc1ccccc1)C(=S)NC1CCCC1
68	-0.9	.	CN1CCN(Cc2c(O)ccc3c(=O)c(-c4ccc(Cl)cc4)c(C(F)(F)F)oc23)CC1
69	.	-13.0	CC(C(=O)NC1(C#N)CCCCC1)N1CCN(S(=O)(=O)c2ccc(Br)s2)CC1 (stereo unspecified)
70	.	-15.0	COC(=O)c1ccccc1NC(=O)C12CC3CC(CC(C3)C1)C2
71	-0.9	.	CC(C)C[C@H](NC(=O)[C@@H](O)[C@H](N)Cc1ccccc1)C(=O)O
72	0.0	1.0	O=C(Nc1cccc(Cl)c1)c1ccc(Cl)cc1
73	0.0	-15.0	O=C(CC1CC2CCC1C2)NCc1ccc(F)cc1 (stereo unspecified)
74	3.4	8.0	COC(=O)c1c(C)nn(-c2ccccc2)c1NC(=O)C(C)Oc1ccc(Cl)cc1 (stereo unspecified)
75	0.6	5.0	Cc1ccc(CNC(=O)c2cc3c(=O)n(C)c4ccccc4c3n2C)cc1
76	.	14.0	O=C(Nc1cccc(OC(=O)c2ccc(F)cc2)c1)c1ccc(F)cc1
77	.	6.0	c1nc(N2CCOCC2)nc2c1CNCC2
78	0.4	2.0	Cc1ccc(C(=O)OCC2OC3OC(C)(C)OC3C2O)cc1 (stereo unspecified)
79	0.8	5.0	CCCn1c(N)nc2c1c(=O)n(C)c(=O)n2C
80	0.5	.	O=C(Nc1ccccc1)OC(CN1CCN(c2ccccc2)CC1)C(F)(F)F (stereo unspecified)
81	.	-2.0	Cc1c(C#N)c(NC(=O)CN2CCCC2c2cccs2)n(C2CCCCC2)c1C (stereo unspecified)
82	.	-15.0	CC(C)(C)n1ncc2c(=O)n(NC(=O)Cc3ccccc3)cnc21
83	.	0.0	O=C(CCn1cccc1)NCCc1ccccc1
84	0.2	-1.0	O=C(CSc1nnc2c(n1)CCCC2)c1ccc(N2CCCC2=O)cc1
85	0.2	6.0	Fc1ccc(N=Cc2ccccc2F)cc1
86	-0.8	0.0	CC(C)Nc1nc(C#N)nc(NC(C)C)n1
87	0.9	-1.0	Cc1cccc(NC(=O)CN2C(=O)CSC2=O)c1
88	-0.3	13.0	NC(=O)C(Cc1ccccc1)N1C(=O)C2C3C=CC(C3)C2C1=O (stereo unspecified)
89	-3.2	20.0	O=C(CC1C(=O)N(c2ccccc2)C(=O)N1C1CCCCC1)Nc1ccccc1 (stereo unspecified)
90	-0.4	.	COC(=O)c1sccc1-c1ccc(CN2CCC(c3ccccc3OC)CC2)o1
91	.	4.0	COc1ccc(C2CCCCCN2C(=O)Cc2nn(C)c(=O)c3ccccc23)cc1 (stereo unspecified)
92	.	-4.0	CCc1ccc(C(=O)NCc2ccc3c(c2)OCO3)cc1
93	4.1	8.0	Cc1cc(=O)[nH]c(SCC(=O)C2CC2)n1
94	2.6	6.0	CC[n+]1cccc(-c2nc3ccccc3s2)c1
95	.	-1.0	S=c1nc(C2CCCCC2)n(-c2ccccc2)[nH]1
96	3.2	9.0	Cc1cc(CSC(=N)N)cs1
97	-0.9	.	Cc1c(NC(=O)c2cc3nc(-c4ccccc4)cc(C)n3n2)c(=O)n(-c2ccccc2)n1C
98	.	18.0	O=C(NNc1ccc(Cl)cc1)C1CCC1
99	.	16.0	CCOC(=O)c1cccc2c3c([nH]c12)C(C(=O)OCC)CCC3 (stereo unspecified)
100	.	29.0	CC(C(=O)N1CCN(Cc2ccccc2)CC1)n1sc2ccccc2c1=O (stereo unspecified)
101	8.9	-5.0	CC(C)NC(=O)CCc1nc2cccnc2n1-c1ccccc1
102	1.0	-5.0	CCOC(=O)C1C(=O)CN(c2ccccc2)C1=O (stereo unspecified)
103	-2.5	.	O=C(c1cccs1)N1CCN(c2ncnc3sccc23)CC1
104	.	13.0	O=C(/C=N/O)Nc1cccc(C(=O)O)c1
105	-0.4	.	O=c1oc2c(o1)=C(c1ccccc1)S(=O)(=O)C=2c1ccccc1
106	.	-29.0	O=C(ON1C(=O)c2cccc3cccc(c23)C1=O)c1cccnc1
107	.	-21.0	CN(C)S(=O)(=O)c1ccc(C(=O)Nc2ccccc2)cc1
108	1.2	.	CCN(CC)Cn1c(=O)sc2ccccc21
109	-4.2	.	CNC(=O)c1c(C)csc1NC(=O)C(F)(F)F
110	.	9.0	CCOc1ccc(C(=O)NCCCN2CCCC2=O)cc1
111	-1.4	.	COc1ccccc1-c1nc2ccccc2s1
112	3.2	3.0	CN(Cc1nc2ccccc2n1C)c1ccccc1

(further entries)
#	MgrA DNA FP	S aureus helic	molecule
113	6.0	-16.0	C(=Nc1cccc(/N=C/c2ccco2)n1)c1ccco1
114	.	-29.0	COc1ccc(-c2noc(CN3CCCC(C(=O)Nc4ccc(F)c(Cl)c4)C3)n2)cc1OC (stereo unspecified)
115	-3.1	-13.0	O=C(COC(=O)CC1CCCC1)Nc1ccc(Br)cc1F
116	0.5	.	O=C(NCc1ccccc1)C1CC(c2ccc(Cl)cc2)=NO1 (stereo unspecified)
117	-2.1	.	CSc1scc2c1-c1nc(SCC(=O)c3ccc(Cl)cc3)ncc1CC2
118	.	-11.0	CCc1ccc(C2/C(=C(/O)c3ccc4c(c3)CC(C)O4)C(=O)C(=O)N2CCOC)cc1 (stereo unspecified)
119	.	-35.0	CCCCCOc1ccc(OC(=O)c2ccncc2)cc1
120	-2.6	3.0	CC(c1ccc(C(=O)O)o1)N1CCOCC1 (stereo unspecified)
121	-1.8	.	CC(=O)NC(=O)c1cnn(-c2ccccc2)c1N
122	0.1	.	O=C(O)c1ccccc1C(=O)NCCN1CCNC1=O
123	.	12.0	Cc1ccc(C(=O)CSc2nnc(-c3cccs3)n2C2CC2)s1
